Compound activity from PubChem BioAssay.
NPYLR7 ag = mosquito NPYLR7 agonism; HEK293T NPYLR7/Galpha15, GCaMP6s calcium fluorescence; activation, % at 10 µM; 270,000 compounds, 0.15% hits; AID 1259423; in the data active = activation above about 40%;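 note: 0% = vehicle and 100% = reference agonist at the receptor; some compounds past the cut are filed as inactive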
NPYLR7 ag max-min = also measured in NPYLR7 ag; calls as there; activation, %; measured here: Max-Min RFU normalised activation; some inactives read as strong as hits;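 span of the calcium signal over five minutes; 0% = vehicle and 100% = native peptide agonist; compound fluorescence can raise it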
* marks the source's active call; other numbers are inactive results.

SMILES	NPYLR7 ag	NPYLR7 ag max-min
CCOC(=O)c1ccc2c(c1)nc(SCc1ccc(C(=O)OC)cc1OC)n2Cc1cccc(F)c1	4.1	-1.5
CCc1nc2n(n1)C(=O)C(C(c1ccc(OC)c(OC)c1)N1CCCC(C)C1)S2 (stereo not drawn)	-1.5	23.2
CCOc1ccc(-n2nnnc2CNC(=O)c2ccc3c(c2)OCO3)cc1	-5.2	0.5
COc1cccc(-c2nnc3ccc(OCCNC(=O)Nc4cccs4)nn23)c1	-5.0	-5.7
Cc1ccn2c(=O)c(NC(=O)c3ccc4c(c3)OCO4)c(C)nc2c1	4.9	5.0
CC(=S)Nc1ccc2c(c1)OCO2	5.8	2.6
O=C(CCC1CCCN(C(=O)c2ccc3c(c2)OCCO3)C1)NCc1ccc(F)c(F)c1 (stereo not drawn)	1.3	0.9
Cc1ncsc1CNC(=O)N1CCN(c2ccccc2Cl)CC1	-6.5	-6.3
CC(C)Cn1c(C2CC(=O)N(c3ccccc3)C2)nc2ccccc21 (stereo not drawn)	7.0	11.0
Cc1cn2nc(NCc3ccccc3F)sc2n1	4.2	-1.1

Single records, as listed above.
Entry for CCOc1ccc(-n2nnnc2CNC(=O)c2ccc3c(c2)OCO3)cc1 → NPYLR7 ag: -5.2; NPYLR7 ag max-min: 0.5
Entry for O=C(CCC1CCCN(C(=O)c2ccc3c(c2)OCCO3)C1)NCc1ccc(F)c(F)c1 (stereo not drawn) → NPYLR7 ag: 1.3; NPYLR7 ag max-min: 0.9

Arranged by number of heavy atoms (low to high): three of the compounds above.
SMILES	NPYLR7 ag	NPYLR7 ag max-min
Cc1cn2nc(NCc3ccccc3F)sc2n1	4.2	-1.1
CCc1nc2n(n1)C(=O)C(C(c1ccc(OC)c(OC)c1)N1CCCC(C)C1)S2 (stereo not drawn)	-1.5	23.2
CCOC(=O)c1ccc2c(c1)nc(SCc1ccc(C(=O)OC)cc1OC)n2Cc1cccc(F)c1	4.1	-1.5

Remaining list, next part
SMILES	NPYLR7 ag	NPYLR7 ag max-min
CCOCCCN(CC(=O)N1CCc2sccc2C1c1ccc(Cl)cc1Cl)S(=O)(=O)c1cc(Cl)ccc1Cl (stereo not drawn)	-1.6	13.4
C/C(=C/c1ccc(F)cc1)C(=O)Nc1ccc(NS(C)(=O)=O)cc1	-0.5	-1.4
CCC(OC1CCCCC1)C(=O)NCc1ccc(C(=O)NC)cc1 (stereo not drawn)	7.6	5.2
COc1ccc(C2CC(c3ccc(C)cc3C)=NN2C(=O)CN2CCCCC2)c(OC)c1 (stereo not drawn)	-2.1	7.2
CCOc1ccc(-n2ccn3c(=O)n(Cc4c(F)cccc4Cl)nc3c2=O)cc1	-4.1	-13.2
Cc1ccc(S(=O)(=O)NC(=O)NCc2ccc(CN(C)C)cc2)cc1	-1.6	-1.2
O=S(=O)(Nc1cnc(-c2ccccc2)nc1)c1ccc(F)c(F)c1	-2.6	-3.2
C1CCN2CCC[C@@H](CNc3nc4nonc4nc3N3CCCC3)[C@H]2C1	17.5	2.7
Cn1cnc(S(=O)(=O)NC(Cc2ccccc2)c2ccccc2)c1Cl (stereo not drawn)	3.1	1.5
Cn1cc(CN(Cc2ccc(-n3ccnc3)cc2)C2CC2)cn1	6.4	0.6
CC(C)c1cccc(Oc2cnn(-c3ccccc3)c(=O)c2Nc2cccc(C(=O)NCc3cccnc3)c2)c1	-5.5	-2.4
COc1nc(C)cc(C)c1CNC(=O)CN1CCCN(C)CC1	-1.1	-3.0
COC(=O)c1c(NC(=O)CSc2nc(C)nc3sc4c(c23)CCCC4)sc2c1CCC2	-5.0	-7.5
CCCCOCCOCC(=O)N1CCN(Cc2cccc(-c3noc(COC)n3)c2)CC1	1.3	-1.0
CCC(=O)N1CCN(c2cc(Oc3ccc(OC)cc3)ncn2)CC1C (stereo not drawn)	-8.6	-4.3
CC(=O)Nc1ccc(SCc2cccc(Cl)c2)nn1	-1.0	-1.4
O=[N+]([O-])c1ccc(N=P(c2ccc3c(c2)OCCO3)(N2CCOCC2)N2CCOCC2)cc1	-8.6	-14.0
O=c1c(C=NNC2CCS(=O)(=O)C2)c(N2CCCCC2)nc2ccccn12 (stereo not drawn)	-0.8	-4.3
CCOc1ccc(-n2nnnc2CNC(=O)NCc2cccc3ccccc23)cc1	20.1	15.9
O=C(NC(c1ccccc1)c1ccccn1)C1CCN(CCOc2ccc3ccccc3c2)CC1 (stereo not drawn)	13.3	-0.5
CC(C)CC(=O)N(CCN(C)C)Cc1nccn1Cc1ccccc1C(F)(F)F	7.7	15.6
CCOC(=O)CNC(=O)N(Cc1ccc(OC)c(OS(=O)(=O)c2cccc(C(F)(F)F)c2)c1)Cc1ccco1	-6.5	-2.4
COC(=O)c1ccc(-c2noc(CS(=O)(=O)CC(C)C)n2)cc1	-0.5	-2.5
CCOC(=O)c1c(NC(=O)c2cccc(OC)c2)sc(C(=O)Nc2cccc(OC)c2)c1C	-7.1	-2.4
OC1(C2(O)CC(c3ccccc3)NO2)CCCCC1 (stereo not drawn)	0.3	-2.4
CCN(CC)c1nc(-c2nn[nH]n2)nc(N(CC)CC)n1	4.5	-1.5
CC1(Cc2ccc(S(C)(=O)=O)cc2)C(=O)Nc2ccc(-c3cccnc3)cc21 (stereo not drawn)	1.1	7.5
CCCc1nc(C(=O)N2[C@@H]3CC[C@H]2CN(C)C(=O)C3)cs1	4.9	2.3
CCN(CC)CCNC(=O)C1=C(C)C(=O)OC12CCCCCC2	3.2	-1.0
CNS(=O)(=O)c1ccc(S(=O)(=O)NC(C)C(=O)N2CCCCC2)cc1 (stereo not drawn)	-1.1	0.0
Cc1cc(CNC(=O)Nc2nc(C)n(C)n2)no1	-1.9	-5.5
CCc1nn(-c2ccccc2)c(NC(=O)c2cccnc2OC)c1C	10.5	8.1
CCCNC(=O)C1(C)CCCN(Cc2csc3ccccc23)C1 (stereo not drawn)	-0.5	-0.2
CC(C)(C)Cc1nc(-c2cccc(C(=O)O)c2)no1	10.3	8.5
COc1c(O)cc2c(-c3ccccc3)cc(=O)oc2c1OC	-3.5	-11.2
CCOC(=O)C(C)Sc1ccc2nnc(CCNC(=O)c3ccc(C)cc3)n2n1 (stereo not drawn)	-7.3	-12.2
COCc1cc(N2CCCC2)nc(SCc2cccc(C(=O)NCCN3CCOCC3)c2)n1	9.6	6.6
COCCN(CC(=O)N(Cc1ccco1)Cc1cccn1C)C(=O)Nc1ccc(Cl)cc1Cl	-3.2	5.3
COc1cccc(/C=C2\C(=O)N(c3cccc(Cl)c3)N=C2C)c1	-22.0	-23.4
CCNc1nnc(SCC(=O)NCC(=O)Nc2ccc(F)cc2)s1	9.4	4.9
CCOC(=O)CCC(=O)N1CCc2cc(OC)c(OC)cc2C1c1ccc(F)cc1 (stereo not drawn)	10.0	1.4
Fc1ccc(CN2CCN(c3c4c(nc5ncnn35)CCCC4)CC2)cc1	28.9	17.9
CC1Cc2cc(S(N)(=O)=O)ccc2N1CC(=O)NCc1ccc(Cl)cc1 (stereo not drawn)	3.2	3.3
COc1ccc(NC2CCCN(C(=O)CNC(C)=O)C2)cc1OC (stereo not drawn)	18.4	12.3
O=C(Cc1ccc(Cl)cc1)NCCc1c(-c2cccnc2)[nH]c2ccccc12	10.7	4.0
OC(COc1c(Cl)cccc1Cl)CN1CCCN(C2CC2)CC1 (stereo not drawn)	5.5	5.3
Cc1ccncc1C(=O)N1CCN(C)C(C(=O)O)C1 (stereo not drawn)	6.2	4.0
O=C(c1csc(-c2cnn(-c3ccccc3)c2)n1)N1CC(O)C1	3.5	1.2
O=C(Nc1ccc(F)cc1)C(C1CCCC1)N1CCN(C(=O)c2ccc3c(c2)OCO3)CC1 (stereo not drawn)	0.4	11.4
O=C(CSc1ccc(-c2ccc(-n3cccn3)cc2)nn1)NCCc1ccccc1	0.4	-0.7

The results go on.
SMILES	NPYLR7 ag	NPYLR7 ag max-min
O=C(Cn1cncn1)NN=Cc1ccc([N+](=O)[O-])o1	13.4	5.7
Cc1cc(-c2cc3c(n(Cc4cccnc4)c2=O)CCN(C(=O)c2nonc2C)C3)ccc1F	17.1	8.2
COc1ccccc1C(=O)Oc1coc(CSc2nc(C)cs2)cc1=O	-0.4	1.5
CCNC(=O)c1ccc(N2CCN(Cc3ccc4c(c3)OCCO4)CC2)nc1	1.1	0.6
COc1ccccc1N1C(=O)CSC1c1cccc(NC(=O)c2ccc(F)cc2)c1 (stereo not drawn)	5.3	18.8
FC(F)(F)C12CC(c3ccccc3)=NCCN1CCN2 (stereo not drawn)	3.2	1.1
COc1ncc(-c2ccc(-c3ccn[nH]3)cc2)c(OC)n1	6.3	5.1
COCCn1c(=NC(=O)CCS(=O)(=O)c2ccccc2)sc2c(OC)ccc(OC)c21	17.1	12.7
Cc1cccc2sc(N(Cc3ccccn3)C(=O)c3ccccc3)nc12	1.0	-1.8
CC(C)N(Cc1nccn1Cc1ccccc1C(F)(F)F)C(=O)C1CC1	5.8	6.5
CCN1C(=O)N(Cc2cccc(OC)c2)C(=O)C12CCN(CC(c1ccccc1)c1ccccc1)CC2	8.5	-4.2
CCn1cc(C(=O)NCc2ccc(O)c(OC)c2)c(C)n1	4.6	2.3
COCCn1c(C)cc(C(=O)COC(=O)C23CCC(=O)N2c2ccccc2C(=O)N3C2CC2)c1C (stereo not drawn)	-6.6	-6.7
C=C(C)CNC(=S)NN=C(C)c1ccc(C)o1	-7.2	-7.4
CC(C)CC(=O)Nc1cc(C(=O)N(C)C(C)C)ccc1Cl	-1.8	-4.8
Cc1cc(C)n2ncc(CN(Cc3noc(C)n3)C(C)C)c2n1	15.5	11.4
CCC(=O)N(CCOC)CC(=O)Nc1cc(C(C)(C)C)nn1-c1ccc(C)cc1C	-1.5	7.4
CCOC(=O)CSc1nnc(CNC(=O)C23CC4CC(CC(C4)C2)C3)n1CCc1ccccc1	-0.8	-3.1
COc1cc(-c2[nH]nc3nccc(-c4cccnc4)c23)cc(OC)c1OC	-0.5	0.7
CCc1[nH]n(-c2cccc(Cl)c2)c(=O)c1C1=C([n+]2ccc(C)cc2)C(=O)N(C2CCCCC2)C1=O	8.0	11.4
COc1cc(-c2ccc(SC3CCCC3)nn2)cc(OC)c1OC	-23.8	-27.6
Cc1ccccc1CO[C@]1(C(=O)NCCN2CCOCC2)CC(OCc2cccc(F)c2F)[C@H](O)[C@H](O)C1 (stereo partly drawn)	22.0	14.0
CCNC(=O)Cn1c(CO)cnc1SCc1ccccc1	17.9	16.1
S=C(NCCN1CCOCC1)N1CCC(Cc2ccccc2)CC1	0.8	-1.0
Cc1ccccc1C(=O)N[C@@H]1CCCCC1NC(=O)C1CCCN(C(=O)COc2ccc(Cl)cc2)C1 (stereo partly drawn)	-2.2	4.6
CCOc1ccc(-c2cnc(-c3ccnc(CC)n3)[nH]2)cc1	-4.9	-5.3
Cc1ccc(-c2ccc(C#N)s2)cc1NCc1nc(C2CC2)no1	8.7	5.2
O=S1(=O)c2cnccc2OC(CN2CCOCC2)CN1Cc1cccc(F)c1 (stereo not drawn)	-1.1	0.0
C#CCOCC(O)CN(Cc1ccc(F)cc1)Cc1c(-c2ccccc2)noc1N1CCCC1 (stereo not drawn)	2.6	4.9
C=CCNC(=O)c1ccccc1N1CCC(NC(=O)c2ccc(Br)cc2)CC1	-0.9	3.1

Gathered by group: the compounds so far containing a tert-butyl group (2)
SMILES	NPYLR7 ag	NPYLR7 ag max-min
CC(C)(C)Cc1nc(-c2cccc(C(=O)O)c2)no1	10.3	8.5
CCC(=O)N(CCOC)CC(=O)Nc1cc(C(C)(C)C)nn1-c1ccc(C)cc1C	-1.5	7.4

The listing continues.
SMILES	NPYLR7 ag	NPYLR7 ag max-min
O=c1cc(CO)oc(C(c2ccc(F)cc2)c2oc(CO)cc(=O)c2O)c1O	9.6	7.7
Cc1cc(C(=O)N(C2CCCC2)C2CC2)sc1C=O	0.1	-2.7
COc1cn(CC(=O)NCc2ccc3c(c2)OCO3)c(CSc2nc(C)cc(C)n2)cc1=O	-5.6	-11.8
CCn1ccnc1CN1CCCC(CCC(=O)Nc2ccccc2F)C1 (stereo not drawn)	-5.7	-8.5

These rows are one share of the data; rates above refer to the full screens.
